# From PubChem BioAssay
# CBX7 inh: CBX7 chromodomain binding inhibitors, primary screen, biochemical, AlphaScreen. Chromobox protein homolog 7 (Homo sapiens), O95931. actives 1.1% (n = 66,000). AlphaScreen His6-CBX7 / biotin-H3K27me3 peptide binding; active compounds read low. AID 1224903, 2016. normalised signal (fraction of DMSO) (no concentration beside the values); in the data active = normalised signal below about 0.5;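 also: 100 nL library stock added to about 20 µL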
# Target sequence (O95931 whole entry, looked up): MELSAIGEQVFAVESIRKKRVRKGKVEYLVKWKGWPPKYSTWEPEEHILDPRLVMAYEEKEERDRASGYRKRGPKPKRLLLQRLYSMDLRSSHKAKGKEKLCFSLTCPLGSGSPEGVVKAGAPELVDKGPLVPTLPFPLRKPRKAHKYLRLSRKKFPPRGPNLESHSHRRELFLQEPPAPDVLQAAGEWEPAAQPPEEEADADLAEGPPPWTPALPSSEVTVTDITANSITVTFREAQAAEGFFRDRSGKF
# CBX7 inh z-score: recorded beside CBX7 inh, whose call it bears; z-score; measured here: z-score of CBX7 signal; some inactives read as strong as hits; reference of the scale not given here;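 same signal on another scale; lower means less binding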
# An asterisk follows results filed as active.
SMILES,CBX7 inh,CBX7 inh z-score
Cc1ccc(CNC(=O)CCc2cn(C)c3ccccc23)cc1,0.97,-1.1
CCCNC(=O)c1ccc2c(c1)nc(C)n2-c1ccc(Br)cc1,1,-0.038
CCN1CCN(c2cc(C)c3cc(NC(=O)c4cccc(OC)c4)ccc3n2)CC1,0.98,-0.13
Cc1nc(Nc2nc3ccccc3o2)nc(-c2ccccc2)c1C#N,1,0.57
COc1ccccc1C(=O)Nc1cc(-c2nc3cc(Cl)ccc3o2)ccc1C,0.98,-0.19
COc1cccc(OCC(O)CN2CCC(C)CC2)c1 (centres undefined),0.98,-0.14
CCOC(=O)N1CCc2c(sc(NCc3cccc(F)c3)c2C(=O)Nc2ccc(OCC)cc2)C1,0.71,-15
Cc1cccc(-n2nc3c(c2NC(=O)Cc2ccc(F)cc2)CSC3)c1C,1,-0.033
C=CCN(C(=O)c1cc2c(-c3cccc(OC)c3)nn(C)c2s1)c1ccccc1,1,0.87
CCCN1CCN(CCCNC(=O)COc2ccc3c(c2)C(=O)CC(C)(C)O3)CC1,0.52,-5.4
COc1ccc(NC(=O)NCCCN2CCN(c3ccccc3F)CC2)cc1,1,0.27
CC1=C(C(=O)OC(C)C)C(c2cc3c(cc2Br)OCO3)NC(=O)N1 (centres undefined),1.1,1.1
CCOC(=O)c1cnc2c(Cl)cccc2c1NCc1ccccc1,1,0.11
CCC(C(=O)Nc1ccccc1F)n1c(SCc2cccc(F)c2)nc2ccncc21 (centres undefined),0.99,-0.36
CCCc1c(C)nc(Nc2nc(C)c3ccccc3n2)[nH]c1=O,0.92,-2.1

# Exported with values under each structure: part of the list above
# Under each structure: CBX7 inh, CBX7 inh z-score
> Cc1ccc(CNC(=O)CCc2cn(C)c3ccccc23)cc1
  0.97, -1.1
> CCCNC(=O)c1ccc2c(c1)nc(C)n2-c1ccc(Br)cc1
  1, -0.038
> CCN1CCN(c2cc(C)c3cc(NC(=O)c4cccc(OC)c4)ccc3n2)CC1
  0.98, -0.13
> Cc1nc(Nc2nc3ccccc3o2)nc(-c2ccccc2)c1C#N
  1, 0.57
> COc1ccccc1C(=O)Nc1cc(-c2nc3cc(Cl)ccc3o2)ccc1C
  0.98, -0.19
> COc1cccc(OCC(O)CN2CCC(C)CC2)c1 (centres undefined)
  0.98, -0.14
> CCOC(=O)N1CCc2c(sc(NCc3cccc(F)c3)c2C(=O)Nc2ccc(OCC)cc2)C1
  0.71, -15

# (more compounds)
SMILES,CBX7 inh,CBX7 inh z-score
O=C(NCC1CCCO1)c1ccc2c(c1)N(Cc1cccc(Cl)c1)C(=O)c1ccccc1S2 (centres undefined),0.81,-2.1
CCc1ccccc1NC(=O)c1ccc2c(=O)n3c(nc2c1)CCCCC3,1,0.39
CC1CC(C)CN(CCCNC(=O)c2cc3c(s2)-c2ccccc2OC3)C1 (centres undefined),1.2,7.3
CC1CCCCC1NC(=O)C1CCCN(c2nc3ccccc3[nH]2)C1 (centres undefined),0.85,-1.8
CC(=O)NCC1(c2ccccc2)CCN(Cc2ccccc2)CC1,1.1,1.3
CCOC(=O)c1cnc2c(C)cccc2c1Nc1ccc(C)c(C)c1,1.5,5.5
CCCCNC(=O)c1ccc2c(c1)N(Cc1ccccc1Cl)C(=O)c1ccccc1S2,0.94,-1.7
CCOC(=O)c1ccc(N2C(=O)CC(N3CCN(c4ccccn4)CC3)C2=O)cc1 (centres undefined),1.1,0.76
COc1ccc(-n2nc3c(c2NC(=O)c2cccc(F)c2)CSC3)cc1,0.88,-2.6
CN(CCNC(=O)C1CCN(c2nnc(-n3cccc3)s2)CC1)C1CCCCC1,2.2,13
COc1ccc(-c2nc(CN3CCCC(C(=O)NC4CCCC4)C3)c(C)o2)cc1 (centres undefined),1,0.86
O=C(CN1C(=O)CSc2ccccc21)N1CCNc2ccccc2C1,0.97,-0.79
CCN(CC)CCCNC(=O)c1cc2c(-c3ccc(Cl)cc3)nn(C)c2s1,1.2,0.83
CCc1ccc(N(CC)C(=O)Cn2ncc3c2-c2cc(C)ccc2OC3)cc1,1,0.65
COc1cccc(-c2nn(C)c3sc(C(=O)NCc4cccs4)cc23)c1,1.1,2.5
O=C1CN(C(=O)Cc2ccccc2)C(c2ccc(F)cc2)c2cc(Cl)ccc2N1 (centres undefined),0.9,-2.4
CCOC(=O)c1cc(-c2ccccc2)n(CCC(=O)Nc2ccccc2CC)c1C,1.1,1.3
COc1cccc(-c2nc(S(=O)(=O)c3ccc(C)cc3)c(N(C)C)o2)c1,0.94,-1.6
COc1ccc(N2CCN(c3cc(C)nc4c(-c5ccccc5)c(C)nn34)CC2)cc1,1,0.95
O=C(c1ccc2c(c1)N(Cc1ccccc1)CCS2)N1CCc2ccccc21,0.81,-0.25
CCOC(=O)c1cnc2ccc(OC)cc2c1Nc1ccccc1OCC,1.1,0.89
O=C(CC1C(=O)N(c2ccc(F)cc2)C(=O)N1Cc1ccccn1)Nc1ccccc1 (centres undefined),1,1.6
O=C(c1c[nH]c2ccc(S(=O)(=O)Nc3ccccc3F)cc2c1=O)N1CCCCC1,0.97,-0.48
Fc1ccc(CNc2nc(-c3cccs3)cc(C(F)(F)F)n2)cc1,1.6,4.9
O=C(c1ccc2c(c1)N(Cc1cccc(F)c1)C(=O)c1ccccc1S2)N1CCCC1,0.89,-3
CC(=O)CCc1oc2ccccc2c1-c1ccc(C)o1,0.87,-2.1
CCCSCCCN1C(=O)Cn2cccc2C1C(=O)NC1CCC(C)CC1 (centres undefined),0.93,-1.3
Cc1ccccc1-c1nc(CN2CCC(C(=O)N3CCC(C(N)=O)CC3)CC2)c(C)o1,1,0.19
Cc1ccc2c(c1)NC(=O)C(CC(=O)Nc1ccccc1C)O2 (centres undefined),1.1,2.4
O=C(NC1CCCCC1)C(c1ccc(Cl)cc1)N1CCc2ccccc21 (centres undefined),0.96,-1
CCOC(=O)C1=[N+]([O-])OC(C(=O)OCC)C1c1conc1C(=O)OCC (centres undefined),1.2,3.8
CCC(C(=O)NCCc1cc2ccc(OC)cc2[nH]c1=O)c1ccccc1 (centres undefined),1,-0.13
O=C(NCc1ccccc1)c1ccc2c(c1)N(Cc1ccc(F)cc1Cl)C(=O)CS2,1,2.1
O=C(NCc1cccnc1)c1cc(-c2cccs2)nc2ccccc12,1,0.09
CC(C)N1CCc2c(sc(NC(=O)c3ccc(S(=O)(=O)N4CCCCC4)cc3)c2C(N)=O)C1,0.96,-2.1
COc1ccc(CCNC(=O)c2ccc3c(c2)nc(C)n3-c2ccc(Br)cc2)cc1OC,0.9,-2.7
COCCN1Cc2cccc(C(=O)Nc3ccccc3F)c2C1=O,1.1,1.7
c1ccc(C(c2nnnn2C(c2ccccc2)c2ccccc2)N2CCOCC2)cc1 (centres undefined),1,1.1
COC(=O)Cc1nc(NCc2ccccc2)c2c(C)c(C)sc2n1,0.89,-0.11
Cc1ccc(CCNC(=O)C2CCC(=O)N2C2CCCCC2)cc1 (centres undefined),1,0.19
COc1ccc(-n2nc3c(c2NC(=O)c2cc(Br)ccc2Cl)CSC3)cc1,1.2,4.1
O=C(Nc1ccc(Oc2ccccc2)cc1)C1c2ccccc2C(=O)N2CCc3ccccc3C12 (centres undefined),1,0.1
Cc1cc(C)nc(NS(=O)(=O)c2ccc(Nc3nc(-c4ccncc4)cs3)cc2)n1,1.1,0.11
CCOC(=O)c1cnc2ccccc2c1NCC(C)O (centres undefined),1,0.17
COc1ccc(-c2noc(-c3ccc(Cl)c(Cl)c3)n2)cc1,1.1,2.1
CCOC(=O)N1CCC(NC(=O)Cn2ncc3ccsc3c2=O)CC1,1,0.44
FC(F)(F)c1cc(-c2ccccc2)nc(N2CCCCC2)n1,1.3,3.8
Cc1ccc(-n2cc(-c3ccc4c(c3)OCO4)nc2SCC(=O)Nc2ccc(F)cc2)cc1,0.97,-0.32
COc1ccc(CNC(=O)CSCc2nc(-c3ccc(C)cc3)oc2C)cc1,0.95,-0.97

# Seven entries picked at random from the list so far:
SMILES,CBX7 inh,CBX7 inh z-score
O=C(NCC1CCCO1)c1ccc2c(c1)N(Cc1cccc(Cl)c1)C(=O)c1ccccc1S2 (centres undefined),0.81,-2.1
O=C(NC1CCCCC1)C(c1ccc(Cl)cc1)N1CCc2ccccc21 (centres undefined),0.96,-1
c1ccc(C(c2nnnn2C(c2ccccc2)c2ccccc2)N2CCOCC2)cc1 (centres undefined),1,1.1
CCOC(=O)N1CCC(NC(=O)Cn2ncc3ccsc3c2=O)CC1,1,0.44
COc1ccc(CNC(=O)CSCc2nc(-c3ccc(C)cc3)oc2C)cc1,0.95,-0.97
Cc1nc(Nc2nc3ccccc3o2)nc(-c2ccccc2)c1C#N,1,0.57
CCOC(=O)c1cnc2ccc(OC)cc2c1Nc1ccccc1OCC,1.1,0.89

# These rows are one share of the data; the hit share may differ from the screen's.
